From PubChem
CSC inhib = blocks cancer stem cells | cancer stem cell-like cells viability, luminescence | inhibition, % at 7.5 µM | 300,000 compounds, 1.1% hits;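 active means mean at 75% or more and at least half the replicates too; inconclusive means mean and replicates disagree; tested in HMLE shEcad cells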;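 further: 0% = median of negative and 100% = median of positive control wells; the first replicate is given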
Rce1 inh = yeast Ras-converting enzyme inhibition; Q03530; yeast membranes, quenched prenylated peptide cleavage fluorescence; calls only; 290,000 compounds, 0.27% hits; AID 2563;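 active means fall in fluorescence gain of 50% or more versus controls, with final raw signal at or below 3038400; inconclusive means same 50% fall but final raw signal above 3038400; inactive means fall in fluorescence gain under 50%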;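 further: plate controls were neutral control wells for no effect and wells lacking membranes for full effect; tested at 10 µM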
HIV Env fusion = inhibitors of HIV Env-mediated cell fusion | HeLa-JRFL Env/CEM21 cell fusion, luciferase | inhibition, % at 12.3 µM | 360,000 compounds, 1.1% hits;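 active means mean replicate inhibition score of at least 50 and every replicate individually at or above 50; inconclusive means only one of the two criteria met; inactive means mean below 50 and not all replicates reaching 50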;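 further: 0% = plate neutral controls and 100% = maraviroc near 300 nM; one replicate is shown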
MT1-MMP act inh = MT1-MMP (human) activation inhibition. P50281. HT1080 RFP-PRO-GFP cells, GFP/RFP ratio fluorescence, overnight; percent of plate control window, DMSO zero. GFP/RFP ratio change, % at 20 µM. 360,000 compounds, 0.061% hits;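 active means GFP/RFP ratio change of at least 30% with cell ATP level not reduced by more than half and red fluorescence within 50% of control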; further: strong numbers were not always called active
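Assay system: RFP-PRO-GFP reporter HT1080 cells; read-out basis: GFP/RFP fluorescence ratio; benchmarks: DMSO wells and RFP-L50D-GFP cells; doses: 20 µM single dose, 1% DMSO; schedule: overnight cell settling, then overnight compound exposure, 37 °C, 5% CO2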
PABP polyA inh = PABP-poly(A) binding inhibition. 290,000 compounds, 1% hits. PABP-poly(A) RNA binding, fluorescence polarization. inhibition, % at 35 µM. P11940;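 active means 50% or more with normal probe brightness, or confirmed in later tests; inconclusive means above 50% with abnormal brightness, or retests that disagree; inactive means below 50% or failed in later tests; about a fifth of its hits are not listed in these tables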;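 further: calls also rest on retests at 20 µM and on dose response follow-up; controls were probe without protein and protein plus probe with vehicle; some compounds called inactive have numbers as strong as hits; many hits fall short of the cut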
Target sequence (P11940 whole entry, looked up): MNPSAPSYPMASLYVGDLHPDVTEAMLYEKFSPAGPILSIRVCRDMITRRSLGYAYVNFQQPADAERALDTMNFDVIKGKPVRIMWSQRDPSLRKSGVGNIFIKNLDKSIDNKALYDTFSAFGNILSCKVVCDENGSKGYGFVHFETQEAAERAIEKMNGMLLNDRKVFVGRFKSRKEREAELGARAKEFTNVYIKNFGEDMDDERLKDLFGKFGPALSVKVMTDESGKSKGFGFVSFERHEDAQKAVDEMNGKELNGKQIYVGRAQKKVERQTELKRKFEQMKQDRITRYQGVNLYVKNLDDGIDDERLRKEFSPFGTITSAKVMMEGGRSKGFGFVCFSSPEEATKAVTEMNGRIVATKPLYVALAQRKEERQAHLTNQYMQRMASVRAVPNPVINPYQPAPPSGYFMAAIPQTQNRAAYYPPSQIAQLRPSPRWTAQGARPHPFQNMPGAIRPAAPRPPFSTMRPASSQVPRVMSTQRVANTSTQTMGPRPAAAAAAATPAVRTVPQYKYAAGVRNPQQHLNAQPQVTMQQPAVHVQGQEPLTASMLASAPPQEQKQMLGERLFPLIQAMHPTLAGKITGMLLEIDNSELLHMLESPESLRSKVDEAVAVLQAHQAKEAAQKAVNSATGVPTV
eIF4H inh = inhibitors of RNA binding by human eIF4H | inhibition, % at 35 µM | Q15056 | 290,000 compounds, 0.94% hits | eIF4H fluorescence polarization binding assay;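 active means 50% or more with normal probe brightness, or confirmed in later tests; inconclusive means above 50% with abnormal brightness, or retests that disagree; inactive means below 50% or failed in later tests; about a fifth of its hits are not listed in these tables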;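 further: calls also rest on retests at 20 µM and on dose response follow-up; 0% = protein and probe with vehicle and 100% = probe without protein; strong numbers were not always called active; many hits fall short of the cut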
UUG fidelity = modulators of start codon recognition fidelity in yeast; activity score, % at 18.7 µM; S. cerevisiae UUG-firefly luciferase reporter, luminescence/redox ratio; 350,000 compounds, 0.13% hits;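 active means replicate mean at a twofold rise or more, about +100% in these data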;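 further: firefly luciferase made from a UUG start codon reports start codon fidelity; reporter light over untreated wells divided by growth signal over untreated wells; some hits fall short of that in this replicate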
eIF4H inh retest = recorded beside eIF4H inh, whose call it bears; inhibition, %; compound at 20 µM; confirmation average;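 mean of two retest wells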
PABP polyA inh retest = also measured in PABP polyA inh; calls as there; inhibition, %; compound at 20 µM; confirmation repeats;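 mean of two retest wells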
MT1-MMP act inh RFP = also measured in MT1-MMP act inh; calls as there; RFP signal change, %; measured here: RFP expression control read;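 0 = vehicle wells; hits needed this value within 50% of zero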
* marks the source's active call; other numbers are inactive results; i = inactive; ? = inconclusive; . = no result given.

SMILES | CSC inhib | Rce1 inh | HIV Env fusion | MT1-MMP act inh | MT1-MMP act inh RFP | PABP polyA inh | eIF4H inh | UUG fidelity | others
CC(=O)OC1CCC2(C)C(=CCC3C2CCC2(C)C3CC3ON=C(C)C32)C1 (stereo not given) | . | . | -20 | 0 | 0 | . | . | -21
CS(=O)(=O)c1ccc(Cl)c(NC(=O)CCl)c1 | 6 | i | 21 | 3 | -4 | -2 | -7 | .
Cc1ccc([N+](=O)[O-])cc1NC(=O)c1ccc(-c2ccccc2)cc1 | -4 | i | . | 2 | -2 | 9 | -15 | .
Cc1nnc(-c2cnn(-c3ccccc3)c2N)n1Cc1ccncc1 | 5 | i | -3 | 5 | 7 | -7 | -8 | -15
CC1=C(C(=O)N(C(C)C)C(C)C)CC(CC(=O)NCCCCc2ccccc2)C(=O)N1Cc1ccccc1 (stereo not given) | . | . | -22 | -4 | -6 | . | . | 28
CCc1cccc(CC)c1C(OC(C)=O)c1cccnc1 (stereo not given) | 0 | i | -3 | 1 | 2 | . | . | .
CCOc1ccc(NC(=S)NC(=O)Cc2ccccc2)cc1 | 1 | i | -9 | 6 | 2 | -6 | -2 | 11
COc1ccc(Cl)cc1NC(=S)N1CCN(C(=O)C2CCCO2)CC1 (stereo not given) | -8 | i | 0 | -1 | 0 | 2 | -7 | .
c1ccc(-c2ccc(-c3ccccn3)nn2)nc1 | 11 | i | 44 | . | . | 2 | 4 | .
CCN(C(=O)COC(=O)c1cccn1C)C1CCS(=O)(=O)C1 (stereo not given) | -6 | i | 5 | 4 | 6 | -13 | -7 | .
O=C(NC(=S)N1CCCC1)c1cccc([N+](=O)[O-])c1 | -6 | i | -3 | 4 | 7 | -10 | -2 | -11
CC1C/C(=C/c2ccco2)C(=O)/C(=C/c2ccco2)C1 (stereo not given) | . | i | . | . | . | 0 | 81 | . | eIF4H inh retest=-2;PABP polyA inh retest=20
Nc1[nH]nc2nc(N3CCOCC3)nc(-c3ccccc3)c12 | 8 | i | 67* | -8 | -6 | 1 | 0 | -23
CC(C)(C)C(=O)NC(=S)Nc1ccc(C(F)(F)F)cc1 | 2 | i | -13 | 1 | 3 | 5 | 9 | -5
CC(Oc1ccc(F)cc1)C(=O)N(Cc1ccccc1)c1c(N)n(Cc2ccccc2)c(=O)[nH]c1=O (stereo not given) | -7 | i | -43 | 0 | -1 | . | . | 4
COc1ccccc1NS(=O)(=O)c1ccc(C)c(C(=O)NCc2cccnc2)c1 | -14 | . | . | -1 | -4 | . | . | -17
Cc1ccc(-c2nc(Nc3cccc(C)c3)sc2CC(=O)O)cc1 | 29 | i | -43 | -19 | 1 | 46 | 85 | -18 | eIF4H inh retest=21;PABP polyA inh retest=28
Cc1ccc(NC(=O)c2ccccc2)cc1 | 14 | i | -126 | 8 | 7 | 9 | -2 | 3
Brc1cccc(-c2nnco2)c1 | -8 | i | -7 | -1 | -5 | 4 | -2 | -9
CCCc1[nH]nc2c1C(c1cc(OC)ccc1F)C(C#N)=C(N)O2 (stereo not given) | -3 | i | . | 9 | 4 | 3 | -5 | -17
COC(=O)c1c(-c2ccccc2Cl)noc1-c1cnc(N)nc1C(F)(F)F | . | i | -4 | 1 | 2 | -28 | -7 | -27
Cc1c(OC(C)C(=O)NC(Cc2c[nH]c3ccc(O)cc23)C(=O)O)ccc2c1oc(=O)c1ccccc12 (stereo not given) | -11 | i | . | 5 | 2 | 64* | 81* | -5
N#Cc1cc([N+](=O)[O-])ccc1Oc1cccc(/C=N/NC(=O)c2ccc(Cl)cc2)c1 | 28 | i | 14 | 4 | -15 | -4 | 3 | -27
COc1cc(C2C(C#N)=C(N)Oc3c2oc(CO)cc3=O)cc(OC)c1OC (stereo not given) | 0 | . | -79 | 2 | 10 | 1 | -3 | -16
CCn1c(CSc2nc3ccccc3s2)nnc1SCC(=O)c1ccc(O)c(O)c1 | . | i | . | 5 | -8 | 9.9* | 52* | -13 | eIF4H inh retest=97*;PABP polyA inh retest=78*
COC(=O)c1cc(C(=O)OCC(=O)NC2CCCCCCC2)cc([N+](=O)[O-])c1 | . | . | -4 | -3 | 1 | . | . | -16
Cc1ccc(C(=O)Nc2ccc(C(=O)N/N=C/c3c[nH]c4ccccc34)cc2)cc1 | 50 | i | -69 | 10 | -1 | 4 | -4 | .
CCOC1=C2[C@@H](CN(S(=O)(=O)c3ccccc3C)[C@H]2c2ccc(Cl)cc2)[C@H]2C(=O)N(c3ccccc3)C(=O)[C@H]2C1 | . | . | 21 | -3 | -12 | . | . | -9
O=S(=O)(Cc1ccccc1Cl)NCCOc1ccccc1 | -10 | i | -15 | 0 | 3 | 8 | -6 | -2
Cc1cccc(NC(=O)/C(C#N)=C/c2ccccc2Cl)n1 | 2 | i | -2 | 6 | 5 | 9 | 2 | -19
O=C(OCc1cncs1)c1ccccc1 | -5 | i | -2 | -4 | -3 | 5 | -1 | -15
CCCN(C(=O)c1ccc(N(C)S(=O)(=O)c2ccc(C)cc2)cc1)C1CCS(=O)(=O)C1 (stereo not given) | 8 | i | . | 3 | -2 | . | . | -9
COc1ccc(NC(=O)c2cc(=O)c3ccccc3o2)cn1 | -7 | i | . | -17 | -1 | 18 | 21 | -13
O=C1N/C(=N/S(=O)(=O)Cc2ccccc2)S/C1=C/c1ccc2c(c1)OCO2 | 11 | i | -11 | -1 | 1 | 11 | 0 | -2
CCc1cc(=O)oc2cc3occ(-c4ccc(OC)c(F)c4)c3cc12 | 72 | i | 6 | 3 | -10 | -6 | -1 | -4
COc1ccccc1NCC(=O)N/N=C/c1c(O)ccc2ccccc12 | 6 | i | 18 | -17 | -4 | -15 | -3 | -14
COc1ccccc1C(=O)Nc1ccccc1C(=O)N1C(C)CCCC1C (stereo not given) | -7 | i | 2 | -4 | 5 | -15 | -15 | .
CCC(C)[C@H](NC(=O)C1(c2ccccc2)CCN(C(=O)OC(C)(C)C)CC1)C(=O)N[C@@H](C(=O)O)c1ccccc1 (stereo not given in full) | -8 | . | . | 6 | 7 | 4 | -9 | 7
CC(=O)c1cc(-c2ccccc2)n(CCC(=O)NC2CCCC2)c1C | -3 | i | -2 | 0 | 3 | 15 | -2 | -10
CC(C)=CCC(C)(C)/C=N/NC(N)=O | -4 | i | 7 | 4 | 3 | -3 | -8 | 1
O=C1C2C3C=CC(C3)C2C(=O)N1/N=C/c1cc(Br)cc([N+](=O)[O-])c1O (stereo not given) | 16 | i | . | -5 | -5 | 25 | 5 | -6
CCCCc1ccc(-n2c(Cc3cccs3)n[nH]c2=S)cc1 | 1 | i | -2 | -1 | -7 | ? | -7 | .
CC(C)CC(C(=O)Nc1ccc2c(c1)OCCO2)N1C(=O)c2ccccc2C1=O (stereo not given) | -12 | i | . | 2 | 3 | 2 | -1 | -23
CCn1cnc2c(Nc3cccc(Cl)c3)nc(C#N)nc21 | -14 | . | -136 | 3 | -21 | . | . | -1
O=C(c1ccco1)N1CCN(C(=O)c2cc(-c3ccccc3)nc3ccccc23)CC1 | . | i | -51 | 5 | 4 | -6 | -7 | -3
CCOC(=O)N1CCN(c2c(N3CCN(c4ccccc4OC)CC3)c(=O)c2=O)CC1 | -7 | i | -18 | 0 | 1 | 4 | 6 | -2
CCOCCc1nnc(NC(=O)COC)s1 | -8 | i | . | 1 | 3 | -11 | -6 | -3
CCn1cc(S(=O)(=O)N2CCN(Cc3ccc(F)cc3)CC2)cn1 | -6 | i | -1 | -2 | -3 | -3 | -4 | .
Cn1c2cc(Br)sc2c2cnn(Cc3c(F)cccc3Cl)c(=O)c21 | . | . | -5 | -1 | -2 | . | . | -18
Clc1ccc2nnnc(-c3ccccc3)c2c1 | 99* | i | . | -5 | 0 | 13 | -7 | .
CCc1sc(-c2ccccc2)nc1C(=O)OC | -5 | i | -15 | 2 | 2 | -4 | 2 | .
CSc1ccc(Cl)c(C(=O)OCC(=O)NC2CC2)c1 | 2 | i | -6 | 4 | 4 | 0 | 1 | 4
CCC1(CC)Cc2ccccc2-c2nc(NCCCO)[nH]c(=O)c21 | -10 | ? | 16 | 7 | 4 | 1 | -12 | .
C=CCc1c(C)nc(SC)nc1Nc1ccc(C(=O)O)cc1 | -8 | i | -49 | -5 | 2 | 5 | -2 | -12
Cc1cc(C)cc(NC(=O)C2CCN(S(=O)(=O)c3ccc4[nH]c(=O)ccc4c3)CC2)c1 | . | i | 17 | 1 | -4 | -2 | 6 | -8
CC1CCC/C(=C\Nc2ccc3c(c2)OCO3)C1=O (stereo not given) | -2 | i | -23 | -1 | 1 | 20 | 23 | -13
O=C(C1Cc2ccccc2CN1S(=O)(=O)c1cccs1)N1CCCCCC1 (stereo not given) | -12 | i | ? | -4 | -1 | -1 | -6 | -7
Cc1onc(-c2c(F)cccc2Cl)c1C(=O)OCC(=O)NC(N)=O | -4 | i | -5 | -4 | -8 | 5 | 3 | 0
Cc1cc(C(=O)N2CCC(C(F)(F)F)n3nccc32)on1 (stereo not given) | -2 | i | . | -3 | 3 | 6 | -1 | 63
CCOC(=O)c1ccc(NC(=O)CN2C(=O)CNC2=O)cc1 | -8 | i | -45 | -2 | 3 | -12 | 2 | .

(next part)
SMILES | CSC inhib | Rce1 inh | HIV Env fusion | MT1-MMP act inh | MT1-MMP act inh RFP | PABP polyA inh | eIF4H inh | UUG fidelity | others
Oc1ccccc1N1CCN(c2ccc3ccccc3n2)CC1 | 30 | i | -120 | 5 | -1 | 8 | 11 | -10
O=C(Cc1ccc(Br)cc1)Nc1ncc([N+](=O)[O-])s1 | 8 | i | -10 | 6 | -30 | 18 | 25 | -14
NS(=O)(=O)c1c(Sc2ccccc2C(=O)O)ccc2ccccc12 | -8 | i | -15 | 0 | 4 | 13 | 4 | -11
COC(=O)C1CC(C(=O)OC)C2C(C(=O)OC)CC(C(=O)OC)C12 (stereo not given) | . | . | -16 | -3 | 1 | . | . | -18
CN(C(=O)COC(=O)/C=C/c1cccs1)c1c(N)n(Cc2ccccc2)c(=O)[nH]c1=O | -10 | i | 13 | 7 | 2 | . | . | 12
O=C(COc1ccc2ccccc2c1)N1CCN(C(=O)c2ccco2)CC1 | -2 | i | -21 | 1 | -3 | -6 | -3 | .
CCOC(=O)Cc1csc(SCC(=O)NC2CCC(C)CC2)n1 (stereo not given) | 4 | i | -7 | 0 | 5 | . | . | 25
CNc1ccccc1C(C)(C)c1cc(-c2cc(C)cc(C)c2)no1 | 97* | i | 4 | -3 | -1 | 8 | -9 | .
CC1Cc2ccccc2N1C(=O)CN1C(=O)NC2(CCCCC2)C1=O (stereo not given) | 4 | . | . | -1 | 0 | . | . | -15
Cn1c(NCc2ccco2)nc2c1c(=O)n(Cc1ccc(Cl)cc1)c(=O)n2C | -10 | i | . | -3 | -5 | 0 | 8 | -11

A portion from the list above:
SMILES | CSC inhib | Rce1 inh | HIV Env fusion | MT1-MMP act inh | MT1-MMP act inh RFP | PABP polyA inh | eIF4H inh | UUG fidelity | others
CCOC(=O)Cc1csc(SCC(=O)NC2CCC(C)CC2)n1 (stereo not given) | 4 | i | -7 | 0 | 5 | . | . | 25
CNc1ccccc1C(C)(C)c1cc(-c2cc(C)cc(C)c2)no1 | 97* | i | 4 | -3 | -1 | 8 | -9 | .
CC1Cc2ccccc2N1C(=O)CN1C(=O)NC2(CCCCC2)C1=O (stereo not given) | 4 | . | . | -1 | 0 | . | . | -15
Cn1c(NCc2ccco2)nc2c1c(=O)n(Cc1ccc(Cl)cc1)c(=O)n2C | -10 | i | . | -3 | -5 | 0 | 8 | -11
